Screening data as filed in PubChem BioAssay.
PINK1 expr mod: A Quantitative High throughput Screen to Identify Chemical Modulators of PINK1 Expression; actives 0.2% (n = 410,000); Potency, µM (highest dose often 76.6 µM), for inactives: top-dose activation (PINK1 increase), hits mostly activators; PINK1 immunofluorescence, high-content cytometry, 24 h; active = well fitted activation curve with a large enough effect; inconclusive = small, poorly fitted or top-dose-only effect; inactive = flat fitted curve, though single readings scatter; cell line not stated here;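 further: potency means the concentration at half of the fitted maximal effect; % of control where 0% means no effect; nearly all actives have a fitted effect of over 65% in size; a mitochondrial uncoupler was the plate control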
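Decision-based qHTS: stable cells, 24 h exposure to five compound concentrations, CCCP as control. Fixed cells stained for PINK1 plus nuclear, mitochondrial and cell markers, cytometer read.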
TRPML1 ag: qHTS for Agonists of the Human Mucolipin Transient Receptor Potential 1 (TRPML1); AID 624414, 2012; actives 0.12% (n = 410,000); activation, % (test concentration not listed); Mucolipin-1 (Homo sapiens), Q9GZU1; TRPML1-expressing cells, Ca2+ dye fluorescence, FDSS; host cell line not named in the record; reference of the full effect not given here; in the data active = activation above about 50%; inconclusive = about 30% to 50%; inactive = below about 30%; further: 0% is about no effect; the text of the record puts the active cut at 80%
Target sequence (Q9GZU1 whole entry, looked up): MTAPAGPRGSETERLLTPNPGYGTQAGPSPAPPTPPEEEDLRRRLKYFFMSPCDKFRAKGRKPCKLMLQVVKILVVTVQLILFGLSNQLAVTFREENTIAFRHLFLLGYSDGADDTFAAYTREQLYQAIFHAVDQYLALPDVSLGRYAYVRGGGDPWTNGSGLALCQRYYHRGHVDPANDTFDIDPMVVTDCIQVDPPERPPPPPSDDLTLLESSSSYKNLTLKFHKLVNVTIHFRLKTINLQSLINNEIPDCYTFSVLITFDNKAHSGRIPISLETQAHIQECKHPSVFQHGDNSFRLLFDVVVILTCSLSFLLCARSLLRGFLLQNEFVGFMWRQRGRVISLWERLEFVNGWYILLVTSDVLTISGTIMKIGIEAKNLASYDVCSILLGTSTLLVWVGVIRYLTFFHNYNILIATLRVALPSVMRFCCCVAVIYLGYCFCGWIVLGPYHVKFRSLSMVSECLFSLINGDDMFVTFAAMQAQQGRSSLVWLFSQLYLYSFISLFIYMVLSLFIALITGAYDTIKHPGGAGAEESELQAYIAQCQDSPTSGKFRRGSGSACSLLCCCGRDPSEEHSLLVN
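Tet-induced TRPML1-DL cells, 1,500 per well, cultured overnight, were loaded with a no-wash Ca2+ dye for 45–90 min. Calcium fluorescence was recorded on the FDSS for 110 s after compound addition, before the EC80 agonist (4 uM 54-4) was added.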
The depositor's hits bear a star. A portion of the library (hit frequency here may not be typical).

Every second line gives: PINK1 expr mod, TRPML1 ag
O=C(Cn1ncc2c3ccccc3n(Cc3ccc(F)cc3)c2c1=O)NC1CCCCCC1
 : -0.1%, -0.5
COc1ccccc1-c1ccnc2c(-c3ccc(Br)cc3)c(C)nn12
 : 1.1%, -0.3
Cc1ccc2nc(-c3ccc(C)c(NC(=O)COc4ccccc4Cl)c3)oc2c1
 : -0.9%, -0.3
O=C(NCCN1CCN(c2cccc(Cl)c2)CC1)Nc1ccccc1C(F)(F)F
 : -0.6%, 1.6
O=C(Nc1ccc2nc(SCC(=O)N3CCOCC3)sc2c1)c1ccc(Br)cc1
 : 4.5%, 3.9
CC1CCCN(c2cc3c(cc2F)c(=O)c(S(=O)(=O)c2cccc(Cl)c2)cn3Cc2ccccc2)C1 (stereo not drawn)
 : 16%, -0.3
CC1=C(C(=O)Nc2ccccc2)C(c2ccc(C(=O)O)cc2)n2nc(SCC(=O)c3ccc(C)cc3)nc2N1 (stereo not drawn)
 : 1.8%, 0.5
COc1ccc(-c2cn(-c3ccc(C)cc3)c(S(=O)(=O)CC(=O)Nc3ccc(F)cc3)n2)cc1
 : 0.3%, -0.3
COc1ccc(OC)c2sc(N(Cc3cccnc3)C(C)=O)nc12
 : -0.8%, 1.3
COc1cccc(Cc2nc3ccccc3nc2SCC(=O)NCCc2ccccc2)c1
 : 0.3%, 1.2
COc1cccc(NC(=O)c2c(N3CCCC3=O)c3cc(C)ccc3n2C)c1
 : 0.1%, 0.9
Clc1cccc(-c2csc(-c3nc(-c4ccc(Br)s4)cs3)n2)c1
 : -0.4%, -0.4
CCOc1ccc(CN2CCc3nc(N4CCN(c5ccccc5OC)CC4)ncc3C2)cc1OC
 : -0.3%, 2.1
CCOC(=O)c1ccccc1NC(=O)CSc1cn(CC(=O)N2CCCCC2)c2ccccc12
 : 0.3%, 0.3
COC(=O)c1cc(NC(=O)CN(c2ccccc2)S(=O)(=O)N(C)C)ccc1Cl
 : 1.4%, -0.5

The final five entries of the section above come first, to join the parts:
Every second line gives: PINK1 expr mod, TRPML1 ag
COc1cccc(NC(=O)c2c(N3CCCC3=O)c3cc(C)ccc3n2C)c1
 : 0.1%, 0.9
Clc1cccc(-c2csc(-c3nc(-c4ccc(Br)s4)cs3)n2)c1
 : -0.4%, -0.4
CCOc1ccc(CN2CCc3nc(N4CCN(c5ccccc5OC)CC4)ncc3C2)cc1OC
 : -0.3%, 2.1
CCOC(=O)c1ccccc1NC(=O)CSc1cn(CC(=O)N2CCCCC2)c2ccccc12
 : 0.3%, 0.3
COC(=O)c1cc(NC(=O)CN(c2ccccc2)S(=O)(=O)N(C)C)ccc1Cl
 : 1.4%, -0.5
O=C(Nc1ccc(C(F)(F)F)cc1)N1CCC(N2CCCCC2)CC1
 : 0.2%, 0.9
Cc1ccc(CNC(=O)C2CCC(CNS(=O)(=O)c3ccc4c(c3)CCCC(=O)N4)CC2)cc1 (stereo not drawn)
 : 0.6%, -0.7
CSc1ncc(Cl)c(C(=O)N(Cc2ccc(C(C)C)cc2)C2CCS(=O)(=O)C2)n1 (stereo not drawn)
 : 1.2%, -0.2
Cc1nc2cc(-c3ccccc3)nn2c(C)c1CCC(=O)NCCc1ccccc1
 : 3.1%, 0.8
Cc1ccc(C(=O)Nc2ccc3oc(-c4ccccc4C)nc3c2)cc1
 : 12%, 2.8
Cn1nnnc1SCCNCc1ccccc1OCc1ccccc1F
 : -0.1%, 0.7
CCc1ccccc1N1CC(c2nc3ccccc3n2CCCCOc2ccccc2OC)CC1=O (stereo not drawn)
 : 6.6%, -0.7
CCc1ccc2ncc(C(=O)c3ccc(C)c(C)c3)c(N3CCC(C(N)=O)CC3)c2c1
 : 4.5%, 3.1
CC(NC(=O)Cn1ccc2cc(S(=O)(=O)N3CCCCCC3)ccc21)c1ccccc1 (stereo not drawn)
 : 0.1%, 0.5
Cc1cccc(CNC(=O)Cc2ccc(NC(=O)N3CCCCc4ccccc43)cc2)c1
 : -1.7%, -0.6
O=S(=O)(c1ccc2[nH]c3c(c2c1)CCCCC3)N1CCN(c2ccccc2)CC1
 : 2.6%, -0.3
COCCNC(=O)c1cccc(Nc2nc3ccccc3n3nnnc23)c1
 : 6.8%, -0.9
CCOc1cc(CNc2ccc(C(=O)O)cc2)ccc1OCc1ccccc1
 : 2.8%, 1.0
Cc1ccc2ncc(C(=O)NCc3ccccc3Cl)c(=O)n2c1
 : -1.3%, 0.0
COc1cccc(CNC(=O)C(NS(=O)(=O)c2ccc3c(c2)oc(=O)n3C)C(C)C)c1 (stereo not drawn)
 : -0.8%, 0.0

Other records:
Every second line gives: PINK1 expr mod, TRPML1 ag
CCOc1ccccc1NC(=O)CSc1ccc2nnc(CCNS(=O)(=O)c3ccccc3)n2n1
 : -0.5%, -0.3
O=C(CN1C(=O)CC(c2ccco2)Sc2ccccc21)Nc1ccc(Br)cc1 (stereo not drawn)
 : 3.7%, 2.2
CCCCn1c(=N)c(C(=O)NC2CCCCC2)cc2c(=O)n3cccc(C)c3nc21
 : 2.7%, -0.7
Cc1cccc(NC(=O)C2CCCN(S(=O)(=O)c3ccc4c(c3)CCCC(=O)N4)C2)c1 (stereo not drawn)
 : -1.0%, 2.0
O=C(NCCc1ccc(Cl)cc1)C(=O)NCC(c1cccs1)S(=O)(=O)c1cccs1 (stereo not drawn)
 : 1.3%, 3.6
COc1ccccc1CNC(=O)c1ccc(N2Cc3cccc(OC)c3Oc3ncccc32)s1
 : 0.1%, 0.2
Cc1nn(CC(=O)N2CCN(c3ccccc3)CC2)c(=O)c2cc3sccc3n12
 : 0.3%, -0.4
COC(=O)Cc1c(C)c2cc3c(c(C)c2oc1=O)OCN(CCc1ccc(F)cc1)C3
 : 0.1%, -0.1
CSc1ncc(C(=O)Nc2cc(Cl)ccc2C)c(-c2ccccc2)n1
 : 0.5%, 1.3
CCn1cc(C(=O)N2CCN(c3cccc(Cl)c3)CC2)c(=O)c2cc(S(=O)(=O)N3CCOCC3)ccc21
 : 2.1%, -0.7
CCOc1ccc(N2CC(c3nc4ccccc4n3CCOc3ccccc3)CC2=O)cc1 (stereo not drawn)
 : -1.4%, 2.1
CCc1ccc(-c2cn3c(n2)sc2cc(C(=O)NC4CCCCC4)ccc23)cc1
 : 2.9%, 0.1
Cc1ccc(CNC(=O)CCCn2nc(C)n3c(cc4sccc43)c2=O)cc1
 : 0.7%, 0.9
COC(=O)C1=C(C)NC(=O)NC1c1cn(-c2ccccc2)nc1-c1ccc(OC)c(Br)c1 (stereo not drawn)
 : -3.0%, 0.3
Cc1ccccc1-c1noc(-c2cc(-c3ccc(F)cc3)n[nH]2)n1
 : 2.3%, -0.2

The list continues.
Every second line gives: PINK1 expr mod, TRPML1 ag
CC(=O)c1c(C)oc2ccc(N(C(=O)c3ccncc3)S(=O)(=O)c3ccc(C)cc3C)cc12
 : 0.8%, 4.6
Cc1ccc(Sc2c(C(=O)NCc3cccc(F)c3)[nH]c3ccccc23)cc1
 : 3.8%, 0.2
O=C(NCCCc1nc2ccccc2n1Cc1ccc(F)cc1)C1CCCCC1
 : 0.6%, 0.4
Cc1ccc(OCC(=O)Nc2ccc(S(=O)(=O)N(Cc3ccccc3)c3ccccc3)cc2)cc1
 : 11%, 1.7
COc1ccc2c(c1)CCc1c(C(=O)Nc3cc(C)ccc3O)noc1-2
 : 11%, -0.9
NC(=O)C1(N2CCCCC2)CCN(C(=O)Nc2ccc(F)cc2F)CC1
 : 1.5%, 0.1
COc1ccc(C)cc1NC(=O)NCc1cccn1Cc1ccccc1
 : 2.9%, 1.5
COc1ccc(CNC(=O)c2cc3sccc3n2Cc2ccc(C)cc2)cc1
 : 4.6%, -0.4
CC(C)(C)OC(=O)N1CCC(c2c(C(=O)N3CCN(c4ccccc4)CC3)cnn2-c2ccccc2)CC1
 : -1.2%, 0.4
COc1ccccc1C(c1c(O)cc(C)n(Cc2ccco2)c1=O)N1CCCCC1 (stereo not drawn)
 : -0.4%, -0.5
Cn1c(=S)[nH]c2cc(C(=O)N3CCN(Cc4cccs4)CC3)ccc2c1=O
 : 1.1%, -0.3
CCOc1ccc(CNC(=O)C2CCN(C(=O)N3CC(CC)Oc4ccc(C)cc43)CC2)cc1OC (stereo not drawn)
 : 0.0%, 1.3
Cc1ccc2nc(-c3ccncc3)c(Nc3ccc(C(C)C)cc3)n2c1
 : -2.1%, 0.0
Cc1nn(-c2ccc(N3CCCC3)nn2)c(C)c1CCC(=O)Nc1ccc(F)c(Cl)c1
 : 2.2%, 2.0
COc1ccccc1NC(=O)c1cc2c(-c3ccccc3)nn(-c3ccccc3)c2s1
 : 8.5%, 2.2

More compounds follow.
Every second line gives: PINK1 expr mod, TRPML1 ag
Cc1ccc(-n2ncc3c(NCCC4=CCCCC4)ncnc32)cc1C
 : 0.8%, -0.7
COc1cccc(OC)c1C(=O)Nc1nc2c(s1)CCc1ccccc1-2
 : 7.7%, -1.0
O=C(CNC(=O)c1ccc(Cl)cc1)OCc1cc(=O)n2nc(C3CC3)sc2n1
 : 1.4%, 0.0
O=C(CCCl)Nc1cccc2cccnc12
 : 8.5%, 0.9
COc1cc(CN(C(=O)COc2ccccc2)c2ccccn2)cc(OC)c1OC
 : -0.3%, -1.2
CCCCCn1c(=O)[nH]c2cc(C(=O)Nc3ccc(F)c(F)c3)ccc2c1=O
 : 3.9%, -0.1
CCOCCc1nn2c(=O)cc(COC(=O)c3ccc(NC(=O)c4ccc(F)cc4)cc3)nc2s1
 : 4.9%, 0.5
CCn1c(SCc2ccccc2)nnc1-c1nonc1NC(C)=O
 : 1.3%, 0.8
CN(C)c1ccc(CNc2nc(-c3ccco3)nn2S(=O)(=O)c2ccc(Cl)cc2)cc1
 : 1.1%, -0.2
Cc1ccc(NC(=O)C(=O)c2cc(C)n(-c3ccc(F)cc3)c2C)cc1C
 : -0.7%, 0.6
COc1cccc(NS(=O)(=O)c2ccc(-c3cc(C)no3)s2)c1
 : 3.8%, -0.7
CC(=O)c1ccc(NC(=O)CC2Nc3cc(C)c(C)cc3NC2=O)cc1 (stereo not drawn)
 : 1.0%, 0.2
COC(=O)c1ccc2nc(C)cc(Nc3cccc(Cl)c3C)c2c1
 : -0.9%, 0.5
Cc1[nH]c(=O)[nH]c(=O)c1S(=O)(=O)Nc1cccc(Cl)c1C
 : 0.3%, -0.4
Cc1ccc(CNC(=O)C2CCN(c3nc4ccccc4n(C)c3=O)CC2)cc1
 : 2.2%, -0.4

Next section.
Every second line gives: PINK1 expr mod, TRPML1 ag
Cc1ccc(C(C)C)c(OCC(=O)Nc2ccc(C(=O)OC3CCCCC3)cc2)c1
 : 1.3%, 2.4
COc1ccc(-c2cc(C(=O)NCCc3ccc(OC)c(OC)c3)c3ccccc3n2)cc1
 : -0.2%, 0.6
CCOCCCNC(=O)c1c(NC(=O)Cc2coc3ccc(C)cc23)sc2c1CCC2
 : -1.3%, 2.3
CCOC(=O)c1[nH]c(C)c(C(=O)NC(CC)Cc2ccccc2)c1C (stereo not drawn)
 : -0.9%, 0.2
O=C(Cc1ccc(Oc2ccccc2)cc1)NO
 : -0.2%, -0.4
CCC(=O)N1CCc2cc(Br)cc(S(=O)(=O)CCC(=O)N(C)c3cccc(C)c3)c21
 : 0.4%, 2.1
CC(C)(C)c1ccc(C(=O)NCC(c2cccs2)S(=O)(=O)c2ccccc2)cc1 (stereo not drawn)
 : 1.8%, 1.5
O=C(CN1CCCN(Cc2ccc(Cl)cc2)S1(=O)=O)Nc1ccccc1F
 : -0.1%, 3.6
CCc1cc2c(cc(C(=O)OC)n2Cc2nc(-c3ccc(C)cc3)oc2C)s1
 : -0.5%, -0.1
O=C(NCCc1ccccc1)c1ccc2c(c1)N(Cc1ccc(F)cc1)C(=O)c1ccccc1S2
 : 0.3%, 1.5
CCn1c(=O)c(=O)n(CC)c2cc(N3CCCCC3)c(NC(=O)c3cccc(F)c3)cc21
 : 0.2%, 1.2
Cc1nc(SCc2ccc(Cl)cc2)c(C#N)c(C)c1Cl
 : 0.8%, 1.1
COc1ccc(N2CC(NC(=O)c3cccs3)CC2=O)cc1OC (stereo not drawn)
 : -0.2%, 1.6
CCOC(=O)c1c(NC(=O)COc2ccc(Cl)cc2C)sc(C(C)=O)c1C
 : 1.1%, -0.6
CCc1ccc2occ(CC(=O)Nc3c(C(=O)Nc4ccc(C)cc4)oc4ccccc34)c2c1
 : -1.5%, 1.8

Next part.
Every second line gives: PINK1 expr mod, TRPML1 ag
CCCOc1cccc(NC(=O)c2c(-c3ccccc3Cl)noc2C)c1
 : 0.3%, 0.8
Cc1cc(C)c2c(n1)nn1c(C)c(CCC(=O)Nc3ccc(C)c(Cl)c3)c(C)nc21
 : 1.3%, 0.0
COc1cn(CC(=O)Nc2ccc(F)cc2)c(CN2CCCCC2)cc1=O
 : -0.7%, 1.1
Cc1nc2cc(-c3cccc(F)c3)nn2c(C)c1CCC(=O)NC(C)c1ccccc1 (stereo not drawn)
 : 3.0%, -0.4
Cc1ccc(NC(=O)CSc2nc(=O)n(CCN3CCOCC3)c3c2CCC3)c(C)c1
 : 0.3%, -1.1
CCCCOc1ccc(C(C)NC(=O)c2cccc(Nc3nc4ccccc4n4nnnc34)c2)cc1 (stereo not drawn)
 : 29%, 1.2
COc1ccc(NC(=O)c2cc3c(s2)-c2c(C)cccc2OC3)c(OC)c1
 : 5.3%, 0.7
